Source: PubChem BioAssay
TRPML1 ag = agonists of human TRPML1 channel; Q9GZU1; actives 0.12% (n = 410,000); TRPML1-expressing cells, Ca2+ dye fluorescence, FDSS; host cell line not named in the record; reference of the full effect not given here; AID 624414; activation, % (test concentration not listed); in the data active = activation above about 50%; inconclusive = about 30% to 50%; inactive = below about 30%; also: 0% is about no effect; the text of the record puts the active cut at 80%
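Calcium fluorescence on an FDSS kinetic reader gave the read-out. Tet-induced TRPML1-DL cells were plated overnight, dye-loaded (Ca8 with quencher, 45-90 min, room temperature, dark), then read 110 s after compound addition, and again 110 s after 4uM final 54-4 (EC80).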
TRPV1 PAM = potentiators of human vanilloid receptor 1 (TRPV1); potentiation, % at 8.33 µM; AID 540277; actives 0.02% (n = 320,000); Q8NER1; TRPV1-expressing cells, Fluo-8 calcium influx, capsaicin EC20 potentiation; host cell line not named in the record; control for the full effect not named in the record; active means potentiation above 80%; inconclusive means 30% to 80%; inactive means below 30%; also: 0% is about no effect
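Cells expressing TRPV1 were dye-loaded with Fluo-8 and read kinetically: 10 s baseline, 3 min after compound (agonist portion), then 2 min after EC20 capsaicin (allosteric enhancer portion). Calcium-bound dye fluorescence at 480/520 nm.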
TRPML1 inh = blocks the human TRPML1 channel; TRPML1-inducible cells, Ca2+ dye fluorescence, FDSS; hits give low values; inhibition of EC80 agonist-evoked calcium signal; actives 0.02% (n = 390,000); activity change, negative = inhibition, % (no concentration beside the values); AID 624415; in the data active means activity change below about -50%; inconclusive means about -30% to -50%; inactive means above about -30%;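 also: stimulus is agonist 54-4 at its EC80 concentration; % is scaled to controls: 0 for no effect and ±100 for the full control effect; compound concentration not given in the record; the text of the record puts the active cut at -80%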
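TRPML1-DL cells, Tet-induced overnight (~16 h, 37 °C) at 1,500 cells/well, were loaded with Ca8 no-wash dye plus quencher for 45-90 min at room temperature. Compounds were pinned during FDSS kinetic reading; agonist 54-4 at EC80 (4 uM final) then added.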
Six1-Eya2 blk = Six1/Eya2 interaction inhibition | AlphaScreen GST-Six1/His-Eya2 binding, biochemical; hits give low values; control for the full effect not named in the record | activity change, % (concentration not given with the values) | actives 0.56% (n = 360,000) | AID 651725; in the data active = activity change below about -65%; inconclusive = about -30% to -65%; inactive = above about -30%; also: % is scaled to controls: 0 for no effect and ±100 for the full control effect
Target sequence (O00167 whole entry, looked up): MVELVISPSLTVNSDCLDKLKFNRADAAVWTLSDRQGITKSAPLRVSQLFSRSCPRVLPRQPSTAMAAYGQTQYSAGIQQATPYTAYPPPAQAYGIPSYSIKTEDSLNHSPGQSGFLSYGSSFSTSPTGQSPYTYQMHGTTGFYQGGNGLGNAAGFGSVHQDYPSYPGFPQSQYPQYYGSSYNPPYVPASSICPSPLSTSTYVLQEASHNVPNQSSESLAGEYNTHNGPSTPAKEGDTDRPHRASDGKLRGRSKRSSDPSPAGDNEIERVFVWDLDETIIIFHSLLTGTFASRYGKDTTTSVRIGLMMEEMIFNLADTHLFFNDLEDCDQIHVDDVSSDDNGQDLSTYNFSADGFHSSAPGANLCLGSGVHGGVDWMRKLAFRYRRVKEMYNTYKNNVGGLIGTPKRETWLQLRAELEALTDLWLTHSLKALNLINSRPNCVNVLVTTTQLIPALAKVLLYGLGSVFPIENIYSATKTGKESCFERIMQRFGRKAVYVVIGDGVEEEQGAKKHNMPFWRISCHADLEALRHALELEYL
Target sequence (Q15475 whole entry, looked up): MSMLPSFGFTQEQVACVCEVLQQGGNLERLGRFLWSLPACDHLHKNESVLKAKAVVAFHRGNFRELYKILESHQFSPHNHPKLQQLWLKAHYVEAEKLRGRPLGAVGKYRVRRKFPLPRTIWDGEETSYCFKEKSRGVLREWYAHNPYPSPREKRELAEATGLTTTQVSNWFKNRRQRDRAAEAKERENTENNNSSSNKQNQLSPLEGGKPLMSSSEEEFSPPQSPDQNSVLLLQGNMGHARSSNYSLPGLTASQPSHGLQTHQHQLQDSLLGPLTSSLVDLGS
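AlphaScreen with GST-Six1 and His-Eya2 (5X mix: 250 nM and 500 nM), glutathione donor and nickel acceptor beads; buffer 50 mM Tris pH 8.0, 300 mM NaCl, 1 mM TCEP; 1 h at 37 C in the dark.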
CtBP-E1A blk = inhibitors of CtBP/E1A interaction | AlphaScreen GST-E1A/His-CtBP binding, 1536-well; hits give low values; control for the full effect not named in the record | activity change, % (test concentration not listed) | actives 0.49% (n = 340,000) | AID 651724; in the data active means activity change below about -65%; inconclusive means about -30% to -65%; inactive means above about -30%; also: % is scaled to controls: 0 for no effect and ±100 for the full control effect; compound concentration not given in the record
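Steps: dispense buffer (Tris pH 8.0, NaCl 300 mM, TCEP 1 mM, BSA, Tween 20); add 5X protein mix (GST-E1A, His-CtBP, 125 nM each); pin 23 nL compound; 2 h at 37 °C, dark; add 5X beads (50 ug/mL); 1 h; read.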
D2 PAM = positive allosteric modulators of human D2 dopamine receptor | DiscoveRx D2 beta-arrestin cells, luminescence, 90 min; 100% = 57 uM dopamine signal | potentiation, % (no concentration beside the values) | actives 0.23% (n = 360,000) | AID 624464; active = potentiation of 50% or more; inconclusive = 30% to 50%; inactive = 30% or less;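 also: compound concentration not given in the record; tested on top of an EC20 dose of dopamine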
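D2 cells co-treated with compound plus 50 nM dopamine (EC20) for 90 min at 37 deg C to detect potentiation. Beta-arrestin recruitment was read as enzyme-fragment luminescence after 1 h at ambient temperature. Full response was set by 57 uM dopamine.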
The depositor's hits bear a star; ? = inconclusive; nt = no result given.

SMILES	TRPML1 ag	TRPV1 PAM	TRPML1 inh	Six1-Eya2 blk	CtBP-E1A blk	D2 PAM
CC(C)c1ccc(NC(=O)CSc2nnc(OC(=O)N(C)C)n2C2CC2)cc1	0.6	9	-11	2	7	0
CCOC(=O)Cn1cc(C(=O)c2ccccc2F)c2ccccc21	2.9	-3	-16	11	5	9
O=C(CCC(=O)N1C[C@H]2C[C@@H](C1)c1cccc(=O)n1C2)NCc1cccc(C(F)(F)F)c1	nt	5	nt	5	-8	-25
O=C(CCN1CCCCC1)Nc1ccc(Br)cc1C(=O)c1ccccc1	0.8	4	-14	-20	-10	-9
Cc1ccccc1CS(=O)(=O)Cc1ccc(C(=O)N2CCC3(CC2)OCCO3)o1	3.6	22	0	-5	22	-5
COc1cccc(C(=O)C2CCCN(Cc3cnn(C(C)C)c3)C2)c1 (stereo not drawn)	-0.5	5	10	0	0	-13
O=c1[nH]c(=S)n(-c2ccc(Cl)cc2)c(O)c1/C=N/N1CCOCC1	-0.5	1	18	-2	-11	-2
C=CCC1(CN2CCCCCC2=O)C(=O)NC(=O)NC1=O	-0.3	20	22	-1	5	-8
CC1(C)C2([N+](=O)[O-])CN3CN(C2)CC1([N+](=O)[O-])C3	0.3	6	4	19	-23	5
COc1ccc(NC(=O)c2cn(CCC#N)nc2-c2ccc([N+](=O)[O-])cc2)cc1	-0.5	28	9	8	9	-3
COC(=O)C1=C(c2ccccc2OCc2ccccc2)C[C@@H]2CC[C@H]1N2C	0.8	nt	44	-11	-3	-12
O=C(Nc1cccc(Br)c1)c1c(O)c2c(n(Cc3ccccc3)c1=O)CCCC2	0.6	3	30	-4	nt	3
O=C(Cc1ccccc1)N1CCN(Cc2cccc(Cl)c2)CC1	0.3	-6	71	-13	0	-11
C[C@]12CCC(=O)C=C1C=C[C@@H]1[C@@H]2CC[C@@]2(C)[C@H]1CC[C@@]2(O)CCC(=O)O	-0.7	7	-16	4	-12	-5
N=c1sccn1Cc1ccccc1F	-1.4	12	10	4	10	0
COc1ccc(C)cc1NC(=O)N1CCC2(CC1)OCCO2	1.6	6	4	-1	5	-1
CC(=Nc1ccccc1N)c1c(O)n(C)c(=O)n(C)c1=O	nt	-6	nt	-2	nt	9
COc1ccc(NS(=O)(=O)c2ccc(OCC(=O)N3CCN(C)CC3)cc2)cc1Cl	-0.6	-2	-6	1	4	-3
CCC(=NCc1ccco1)c1c(O)n(Cc2ccccc2)c(=O)[nH]c1=O	-0.7	-5	19	-7	-5	-10
CC(C)c1cccc(C(C)C)c1O	-0.1	nt	-9	7	8	-6
CN=C1CN(O)C(c2ccccc2)c2cc(Cl)ccc2N1 (stereo not drawn)	-0.3	nt	12	-14	-19	-8
CCCCCCn1c(O)c(C(C)=NC)c(=O)[nH]c1=O	0.2	-9	14	2	6	-7
ClC1=CCC2CN(CCN3CCCCC3)CC2C1 (stereo not drawn)	-0.7	4	7	0	10	-30
Cc1cccc(-n2c(O)c(C)c(=O)[nH]c2=S)c1	1.7	0	-28	21	22	-2
CCOC(=O)c1cc2c(cn1)[nH]c1ccccc12	-0.3	-1	-2	-16	?	-1

5 entries from above, sorted by formula weight, smallest number first.
SMILES	TRPML1 ag	TRPV1 PAM	TRPML1 inh	Six1-Eya2 blk	CtBP-E1A blk	D2 PAM
CC(C)c1cccc(C(C)C)c1O	-0.1	nt	-9	7	8	-6
CCOC(=O)c1cc2c(cn1)[nH]c1ccccc12	-0.3	-1	-2	-16	?	-1
O=C(Cc1ccccc1)N1CCN(Cc2cccc(Cl)c2)CC1	0.3	-6	71	-13	0	-11
COc1cccc(C(=O)C2CCCN(Cc3cnn(C(C)C)c3)C2)c1 (stereo not drawn)	-0.5	5	10	0	0	-13
COc1ccc(NC(=O)c2cn(CCC#N)nc2-c2ccc([N+](=O)[O-])cc2)cc1	-0.5	28	9	8	9	-3

(continued)
SMILES	TRPML1 ag	TRPV1 PAM	TRPML1 inh	Six1-Eya2 blk	CtBP-E1A blk	D2 PAM
N#CC(C#N)=NNc1ccc(S(N)(=O)=O)cc1	nt	-7	nt	?	-74*	-16
CC(CC(C)(C)N1CC1)=NNC(=O)Nc1cccc2ccccc12	0.2	nt	16	-3	-1	-21
COc1ccc(NC(=O)c2cn(CCC#N)nc2-c2ccc(OC)c(OC)c2)cc1	-0.4	4	-4	-9	7	1
O=Cc1cn(Cc2ccccc2[N+](=O)[O-])c2ccccc12	2.6	0	31	-14	6	-7
O=C1NC(=O)N(CCNc2ncc(C(F)(F)F)cc2Cl)C(=O)C1Cc1ccc(Cl)cc1 (stereo not drawn)	1.3	25	0	0	0	-1
CCN(CC)c1ccc(/C=C2\C(=O)NC(=S)N(c3ccc(OC)cc3OC)C2=O)o1	12	nt	-9	6	0	-17
CCOC(=O)c1cc(CC)sc1/N=C/c1c(O)[nH]c(=S)[nH]c1=O	0.3	8	11	10	-15	-9
COC(=O)N(c1ccc(OC)cc1)P1(=S)OCCC(C)O1 (stereo not drawn)	-1.2	-12	1	-2	6	18
Cc1c(C=O)c2ccccc2n1Cc1ccccc1F	-1.1	0	-9	2	1	1
CCOC(=O)[C@]12Cc3ccc(C)cc3[C@H]1N(C1CCCCC1)C(=O)c1ccccc12	1.3	nt	nt	0	-4	nt
CC(C)c1ccc(N2C(=O)NC(=O)/C(=C\c3cnc(-c4ccccc4)nc3)C2=O)cc1	0.1	5	1	2	-8	9
Cc1sc2ncnc(N3CCC(C(=O)Nc4ccc(C#N)c(Cl)c4)CC3)c2c1C	4.3	7	-3	-15	-1	-4
O=C1NC(=S)NC(=O)C1=Cc1cccn1-c1ccc(O)cc1	0.8	11	-2	?	5	-15
CNC(=S)NC1CC2CCCC(C1)N2CC(C)C (stereo not drawn)	0.8	nt	-9	4	-9	-15
CC(Cc1ccccc1)NC(=O)CCCCC(=O)NC(C)Cc1ccccc1 (stereo not drawn)	0.3	-5	31	-7	0	-2
NC12CN3CN(CN(C3)C1)C2 (tested in a mixture with another compound)	-0.3	9	6	-3	10	4
CN(C)C(=O)Oc1ccc2c(c1)O/C(=C\c1ccc(Cl)cc1)C2=O	1.2	2	-12	-8	nt	-4
O=C(c1ccc(-c2ccccc2)c(F)c1)C1CCCN(CCO)C1 (stereo not drawn)	-0.7	1	-5	-3	14	-12
CC(C)Oc1ccc(Cc2c(O)[nH]c(=O)[nH]c2=O)cc1	0.0	29	2	-2	3	-6
CCc1cc2c(s1)N(CC(=O)OC)C(=O)CN=C2c1ccccc1OC	-0.6	1	21	0	6	-3
CCC1(c2ccccc2)C(=O)N(COC)C(=O)N(COC)C1=O	0.1	19	-1	2	-6	5
CSCCC(c1nnnn1C1CCCCC1)N1CCC(n2c(=O)[nH]c3ccccc32)CC1 (stereo not drawn)	0.1	nt	-11	-14	-3	nt
COc1ccc2[nH]c(C)c(CCNCc3cc(OC)c4c(c3)OCO4)c2c1	0.8	1	14	-27	-29	-5
CCOC(=O)c1ccc(NC(=O)c2c(O)[nH]c(=O)[nH]c2=O)cc1	-0.2	-21	-2	7	18	-6
C[C@]12CCC3C(CC[C@H]4C[C@H](O)CC[C@]34C)C1C[C@@H](O)[C@H]2O (stereo partly drawn)	1.2	nt	-15	-2	3	-7

One compound at a time (already shown). Order of screens: TRPML1 ag, TRPV1 PAM, TRPML1 inh, Six1-Eya2 blk, CtBP-E1A blk, D2 PAM
CC(CC(C)(C)N1CC1)=NNC(=O)Nc1cccc2ccccc12 as listed: 0.2, nt, 16, -3, -1, -21
CSCCC(c1nnnn1C1CCCCC1)N1CCC(n2c(=O)[nH]c3ccccc32)CC1 (stereo not drawn) as listed: 0.1, nt, -11, -14, -3, nt
Cc1sc2ncnc(N3CCC(C(=O)Nc4ccc(C#N)c(Cl)c4)CC3)c2c1C as listed: 4.3, 7, -3, -15, -1, -4

Additional records
SMILES	TRPML1 ag	TRPV1 PAM	TRPML1 inh	Six1-Eya2 blk	CtBP-E1A blk	D2 PAM
CC(CC(C#N)(c1ccccc1)c1ccccc1)N1CCOCC1 (stereo not drawn)	0.6	nt	-1	6	5	-6
CC[C@@H](CO)C1CC2NC3CC4(c5ccccc5N(C)[C@@H]24)C(O)C31 (stereo partly drawn)	nt	nt	nt	-1	0	-41
CCCCCCN=C(CC)c1c(O)n(CCCC)c(=O)[nH]c1=O	0.2	-15	-1	-6	4	-13
COC(=O)C1=C(c2ccc(OCc3ccccc3)cc2)C[C@@H]2CC[C@H]1N2C(=O)NCc1ccc(F)cc1	1.3	nt	30	23	-12	-6
O=C1Nc2ccccc2C(c2ccccc2)=NC1O (stereo not drawn)	0.7	-13	14	11	7	-2
Cc1ccc(/C=C2/Sc3ccc(C(=O)N4CCC5(CC4)OCCO5)cc3NC2=O)cc1	2.2	6	-9	4	-2	-7
O=[N+]([O-])c1cnc2ccc3ccccc3c2c1	-0.6	-9	-12	-16	-19	5
O=c1c2ccccc2nc(Cc2ccccc2)n1-c1ccccc1	nt	4	nt	-4	nt	16
C/C1=C\[C@@H](C)C/C=C/[C@H]2[C@@H]3O[C@]3(C)[C@@H](C)[C@H]3[C@H](Cc4c[nH]c5ccccc45)NC(=O)[C@]32C(=O)/C=C/C(=O)[C@@H]1O	nt	-8	nt	-5	-5	-108
O=c1[nH]c(CN2CC=C(c3ccccc3)CC2)nc2scc(-c3ccccc3)c12	-0.4	9	4	-16	nt	-10
Cc1cc(C=O)c(C)n1C1CCCCC1	-0.8	-14	-12	-9	-4	-35
COc1ccc(C(=O)C2CCCN(Cc3ccon3)C2)cc1OC (stereo not drawn)	-0.4	6	3	-11	-5	-6
CN1CCN(c2ccc([N+](=O)[O-])c3no[n+]([O-])c23)CC1	2.4	-8	-8	3	-1	19
C[C@H]1COc2cc(N3CCN(C)CC3)ccc2S(=O)(=O)N1	-0.1	nt	nt	11	-2	nt
COc1ccc(C(SCC(NC(=O)OCc2ccccc2)C(=O)O)c2ccc(OC)cc2)cc1 (stereo not drawn)	0.5	nt	-14	-2	-1	nt
CCC(=O)Nc1ccc(Cl)c(Cl)c1	0.0	nt	-7	6	-1	-12
CSc1ncc(CN2CCCC(C(=O)c3sccc3C)C2)cn1 (stereo not drawn)	-0.5	12	18	1	-2	-13
OC(CNC1CCCCC1)c1ccccc1 (stereo not drawn)	-0.1	9	7	-7	0	-14
CC(=O)O[C@H]1CC[C@@]2(C)[C@H](C1)C(=O)C[C@H]1[C@@H]3CC[C@@H]4[C@@H](CN5C[C@@H](C)CC[C@H]5[C@@]4(C)O)[C@@H]3C[C@@H]12	0.2	11	-12	10	nt	-5
CC1CCCN(C(=O)c2ccc(N3CC4CC(C3)c3cccc(=O)n3C4)c([N+](=O)[O-])c2)C1 (stereo not drawn)	0.1	-2	4	-4	22	-18
CCN(CC)CCNCC(=O)Nc1ccc(Cl)cc1C(=O)c1ccccc1	-0.4	-1	-2	6	9	-11
O=C1N(c2cccc(Cl)c2)C(c2cccnc2)N2CCCN12 (stereo not drawn)	-0.4	-15	1	3	12	-7
N#CC1=C(N)Oc2c(c(=O)oc3ccccc23)C1c1ccccc1OC(=O)c1cccs1 (stereo not drawn)	-0.6	-14	9	0	0	-6
COCCCN=Cc1c(O)[nH]c(=S)[nH]c1=O	0.6	-2	10	16	34	-1
CCn1c(O)c(/C=N/NC(=O)c2ccncc2)c(=O)[nH]c1=S	0.0	7	4	-17	nt	-12

The list is partial; count on the stated rates, not on these rows.
